VDR inh: vitamin D3 receptor (human) inhibition; VDR-SRC2-3 peptide fluorescence polarization, 2 h; P11473; actives 0.93% (n = 400,000); AID 504847; Potency, µM, inactives show max response, negative = inhibition, hits mostly inhibitors; active = well fitted inhibition curve with a large enough effect; inconclusive = small, poorly fitted or top-dose-only effect, or another doubt; inactive = no such curve, though single readings can be large or run the other way; also: series mostly up to about 120 µM
Target sequence (P11473 whole entry, looked up): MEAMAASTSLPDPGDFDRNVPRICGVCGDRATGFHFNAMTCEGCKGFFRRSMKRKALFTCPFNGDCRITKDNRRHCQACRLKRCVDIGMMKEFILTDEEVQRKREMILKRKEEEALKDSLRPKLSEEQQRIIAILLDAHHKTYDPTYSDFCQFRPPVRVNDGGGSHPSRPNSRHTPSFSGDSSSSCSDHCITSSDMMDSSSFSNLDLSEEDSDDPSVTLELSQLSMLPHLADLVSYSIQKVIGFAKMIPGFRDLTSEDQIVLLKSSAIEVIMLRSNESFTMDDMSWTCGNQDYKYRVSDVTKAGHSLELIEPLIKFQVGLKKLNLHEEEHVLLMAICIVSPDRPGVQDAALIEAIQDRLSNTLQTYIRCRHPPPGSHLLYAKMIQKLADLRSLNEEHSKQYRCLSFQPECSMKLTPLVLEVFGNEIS
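Fluorescence polarization assay of small-molecule disruption of VDR binding to coregulator peptide SRC2-3. Compounds and controls pin-transferred, then read after 2 h incubation at ambient room temperature.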
* marks the source's active call; other numbers are inactive results; u = inconclusive; & = joins results of further samples; [ ] = dose if it differs, or a comment. % is scaled to controls: 0 for no effect and ±100 for the full control effect; potency is read from the fitted curve at half-maximal effect. A portion of the library (hit frequency here may not be typical).

The first 2 compounds (preview)
structure | VDR inh
C[C@H](CO)N1C[C@H](C)[C@@H](CN(C)Cc2ccccc2)Oc2ccc(NC(=O)Cn3cnnn3)cc2C1=O | 7.6%
Cc1[nH]nc2c1C(c1ccsc1)C(C#N)=C(N)O2 (stereo not drawn) | -5.5%

The list itself, from the first entry:
structure | VDR inh
C[C@H](CO)N1C[C@H](C)[C@@H](CN(C)Cc2ccccc2)Oc2ccc(NC(=O)Cn3cnnn3)cc2C1=O | 7.6%
Cc1[nH]nc2c1C(c1ccsc1)C(C#N)=C(N)O2 (stereo not drawn) | -5.5%
COc1cccc(OCc2cc(C(=O)N(C)Cc3nc(C)cs3)no2)c1 | -5.8%
COc1cccc(NC(=O)CSc2nc(C3CC3)nc3ccccc23)c1 | -1.3%
Cc1cccn2c(=O)c3cc(C(=O)NCC4CCCO4)c(=N)n(Cc4ccc(F)cc4)c3nc12 (stereo not drawn) | -13.7%
O=S(=O)(NC1c2cccc3cccc(c23)C1Sc1ncccn1)c1ccccc1 (stereo not drawn) | -12.0%
CCN(CC(=O)Nc1ccccc1C(F)(F)F)C(=O)C1CCN(C(=O)Nc2ccccc2)CC1 | -6.0%
O=C(Nc1cccc(Br)c1)N1CCN2CCCCC2C1 (stereo not drawn) | -2.1%
c1cn(-c2cc(-c3ccc4c(c3)OCO4)ncn2)cn1 | 64.2%[activator]
Cc1cc(C)cc(NC(=S)N(CCN(C)C)C(C)c2cccnc2)c1 (stereo not drawn) | 1.8%
COc1ccc(CCNC(=O)COC(=O)Cn2cnc3ccccc3c2=O)cc1 | -5.7%
Cc1cc([N+](=O)[O-])nn1Cc1noc(C(=O)NCc2ccc3c(c2)OCO3)n1 | 13.2%
COc1cccc(NC(=O)CN(C)C(=O)c2cccc(S(=O)(=O)N3CC4(C)CC3CC(C)(C)C4)c2)c1 (stereo not drawn) | 5.5%
Cc1ccc(CNS(=O)(=O)c2ccc3c(c2)NC(=O)C(C)S3)cc1 (stereo not drawn) | -6.9%
O=[N+]([O-])c1ccc(NC(=S)NCc2ccc(F)cc2)cc1 | 13.0%
COc1cc(C)c(N(C(C)=O)c2ccccc2)c(C)c1 | -0.3%
CC(c1ccccc1)c1nnc(NC(=O)Nc2ccccc2)s1 (stereo not drawn) | 1.8%
O=C(COC(=O)c1ccco1)NCc1ccc(F)cc1 | 9.2%
COc1ccc(-n2c3c(cc(C(=O)Nc4cccc(C)n4)c2=O)C(=O)CC(C)(C)C3)cc1 | -9.7%
C/C(CC(O)(/C=N/O)c1ccccc1)=N\O (stereo not drawn) | 9.6%
O=C(Nc1nnc(-c2ccco2)o1)c1ccc(S(=O)(=O)N2CCCC2)cc1 | -1.5%
CCC(C(=O)Nc1ccccn1)c1ccccc1 (stereo not drawn) | -10.1%
COc1ccc(-n2cnc3cc(NC(=O)c4ccco4)ccc32)cc1 | -4.0%
CC(C(=O)NCC1CCCO1)n1cc([N+](=O)[O-])cn1 (stereo not drawn) | -7.2%
COc1ccc2c(N)c(C(=O)NN)[nH]c2c1 | -5.1%

The list goes on (7 carried over from the part before).
structure | VDR inh
COc1ccc(-n2c3c(cc(C(=O)Nc4cccc(C)n4)c2=O)C(=O)CC(C)(C)C3)cc1 | -9.7%
C/C(CC(O)(/C=N/O)c1ccccc1)=N\O (stereo not drawn) | 9.6%
O=C(Nc1nnc(-c2ccco2)o1)c1ccc(S(=O)(=O)N2CCCC2)cc1 | -1.5%
CCC(C(=O)Nc1ccccn1)c1ccccc1 (stereo not drawn) | -10.1%
COc1ccc(-n2cnc3cc(NC(=O)c4ccco4)ccc32)cc1 | -4.0%
CC(C(=O)NCC1CCCO1)n1cc([N+](=O)[O-])cn1 (stereo not drawn) | -7.2%
COc1ccc2c(N)c(C(=O)NN)[nH]c2c1 | -5.1%
Cc1ccc(S(=O)(=O)Cc2ccc(C(=O)N3CCc4ccccc4C3)o2)cc1 | -13.9%
O=C(NC1CCCCC1)c1ccccc1NC(=O)C1CC1 | 12.5%
COc1ccc(-c2nnc3sc(CCN4C(=O)c5ccccc5C4=O)nn23)cc1 | 27.4%
Nc1nc(-c2ccc(Cl)cc2)cc(C(F)(F)F)n1 | 14.3%
Nc1cccc(Oc2ccc3c(c2)C(=O)N(CC2CCCO2)C3=O)c1 (stereo not drawn) | -22.0%
COc1ccccc1OCC(=O)Nc1ccc2c(c1)OCCO2 | 7.2%
C[C@H](NC(=O)N1CCn2c1nc1ccccc12)C(=O)NCc1ccc(F)cc1 | -2.4%
Cn1ccc(NC(=O)Nc2ccc(Cl)cc2)n1 | -6.9%
COc1cc(C)c(S(=O)(=O)N2CCOCC2)c(C)c1C | -8.6%
O=C(Nc1nnc(C2CC2)o1)c1ccc(S(=O)(=O)N2CCCc3ccccc32)cc1 | -19.4%
COc1cccc(-n2cc(C(=O)Nc3cc(OC)c(OC)c(OC)c3)c3ccccc3c2=O)c1 | -2.1%
Cc1ccc2[nH]c(=O)c(CN3CCCCC3)c(-c3ccccc3)c2c1 | 7.0%
CCCOc1ccc(C(=O)NNC(=S)NC(=O)c2ccccc2)cc1 | -13.2%
CCOC(=O)/C(C#N)=C/c1ccc(N2CCCCC2)cc1 | 9.8%
N#Cc1ccc(N2CCOCC2)c([N+](=O)[O-])c1 | u
CC1=NNC(=O)C1CCC(=O)N/N=C(\C)c1ccccc1 (stereo not drawn) | 35.6%[activator]
CCCN1CCC(NC(=O)C2CCN(C(C)=O)CC2)CC1 | -6.5%
Nc1nonc1C(=O)NCCNCc1ccccc1F | -13.4%
Brc1ccc(-c2nnc(-c3cccnc3)c3conc23)cc1 | 12.5%
CCc1nc(SC)ncc1C(=O)N1CCN(c2cc(C)ccc2C)CC1 | -13.0%
Cc1nc(-c2ccccc2)sc1-c1n[nH]c(=S)n1C | -2.0%
Cc1ccccc1CN1CCSc2sccc2C1=O | -12.8%
CC1CCCN(C(=O)c2cc(-c3cccs3)nc3ccccc23)C1 (stereo not drawn) | -14.7%
CCCCC(=O)NCCc1ccc(S(N)(=O)=O)cc1 | 12.7%
CCOc1cc(C(=O)OC(C)C(=O)Nc2ncc(Cl)cc2Cl)ccc1OCC(=O)N1CCOCC1 (stereo not drawn) | 0.6%

The listing continues.
structure | VDR inh
Cc1nn(CC(=O)NCCc2ccccc2)c(=O)c2ccccc12 | 15.7%
CCN1C(=NCCOC)N[C@@H](CCc2ccccc2)[C@H](C(=O)OC)[C@H]1C | -9.4%
OCCN(CC(O)COc1ccccc1)CC(O)Cn1ccc2ccccc21 (stereo not drawn) | 3.3%
CCCCOC(=O)c1ccc(NC(=O)CSCc2n[nH]c(=O)[nH]2)cc1 | -7.9%
COc1ccc(CN=C(C)c2c(C(F)(F)F)[nH]n(-c3nc4ccccc4s3)c2=O)cc1 | -0.9%
Cc1ccsc1C(=O)N1CCCC(CCC(=O)N2CCN(c3ccccn3)CC2)C1 (stereo not drawn) | -10.0%
Cc1cc(NC(=O)C2CCCO2)ccc1Br (stereo not drawn) | 13.7%
Cc1ccc(OCC(=O)NNC(=O)Cn2nnc(-c3ccccc3)n2)cc1 | 13.6%
CN(C)CCN1CC(O)=C(c2nc3ccccc3s2)C1=N | 7.7%
COc1cc2c(cc1OC)C(C(=O)Nc1cc(C)c(OC)c(C)c1)CC(=O)N2 (stereo not drawn) | -13.8%
Fc1cccc(CCN2CCNC[C@@H]2CC2CCCCC2)c1 | -8.3%
Cc1cccc(N2CCN(C(=O)c3c(C)oc4ncnc(N5CCOCC5)c34)CC2)c1C | 6.0%
Cc1ccc(S(=O)(=O)N(C)C)cc1NC(=O)COC(=O)c1sc2cc(Cl)ccc2c1Cl | 10.3%
CCOc1ccccc1NC(=O)CS(=O)(=O)c1cn(CC(=O)N2CCOCC2)c2ccccc12 | -0.4%
COc1cc(C(=O)Nc2cccc(-c3nc4cc(C)ccc4o3)c2)cc(OC)c1OC | -9.7%
CCCOc1ccc(/C(CC)=N/NC(=O)C2(C)CC2(Br)Br)cc1 (stereo not drawn) | -22.6%
O=C(CN1C(=O)C2CCCCC2C1=O)Nc1nc2ccc(F)cc2s1 (stereo not drawn) | 4.7%
COC(=O)c1ccc(C(=O)OC)c(NC(=O)c2cccnc2)c1 | 0.1%
Cc1cc(C)cc(NC(=S)N2CCN(c3ccccn3)CC2)c1 | -3.1%
COc1ccc(S(=O)(=O)NCC2CCCN(C(=O)C3CCCC3)C2)cc1 (stereo not drawn) | -15.1%
COc1ccc(NC(=O)c2ccc(Cl)cc2)c[n+]1[O-] | -24.6%
CCOc1ccc(-n2cnc3sc4c(c3c2=O)CCCC4)cc1 | -16.2%
Cc1cc(C)cc(NS(=O)(=O)c2ccc(NC(=S)NC(=O)c3ccc(Br)o3)cc2)c1 | -4.3%
COc1cc(Cc2cc(N)nc(N)n2)cc(OC)c1OC | -12.0%
Cc1cc(NC(=O)COc2ccccc2)n(-c2ccccc2)n1 | 7.9%

The results go on.
smiles,VDR inh
CCCCOc1ccc(NC(=O)c2cc(F)c(F)cc2Cl)cc1,0.1%
COc1cc(OC)cc(C(=O)N2CC(=O)Nc3ccc(Cl)cc3C2c2ccccc2)c1 (stereo not drawn),-21.0%
CC1CCC(NC(=O)Nc2cccs2)CC1 (stereo not drawn),-1.8%
CN(Cc1nc2c(s1)CCCC2)C(=O)CCc1nnc(-c2ccc3c(c2)OCO3)o1,6.5%
CCC(C)c1ccccc1N1CC(C(=O)NCCc2ccc(OC)c(OC)c2)CC1=O (stereo not drawn),14.0%
O=C(CC1CCCCC1)NCc1ccccc1Cl,6.2%
O=C(NCc1ccc(OC(F)(F)F)cc1)c1cccc2c1C(=O)c1ccc(N3CCCC3)cc1S2(=O)=O,-12.0%
CCOc1ccccc1CNC(=O)c1cc2occc2n1C,2.4%
COc1ccc(-n2cnc3sc4c(c3c2=O)CCCC4)cc1,-13.9%
C[C@@H]1ON(C)[C@H]2C[C@H]3c4cc(N5CCOCC5)ccc4CCN3C(=O)[C@@H]12,-6.4%
Cc1c(C(=O)NCCSCc2ccc(Cl)cc2Cl)cccc1[N+](=O)[O-],-4.4%
COc1ccc(C2(c3ccc(OC)cc3)NC(=O)N(CC(=O)NC3CCCC3)C2=O)cc1,-3.1%
Cc1ccccc1/C=C/c1nc2ccccc2c(=O)[nH]1,-1.8%
CCc1ccc(C(=O)COC(=O)CCc2nc3ccccc3c(=O)[nH]2)cc1,0.5%
COc1ccc(C)cc1-n1nnnc1SCC(=O)Nc1cc(C)on1,6.6%
CCc1nnc(NC(=O)COc2ccc(N(C)S(=O)(=O)c3ccc(C)cc3)cc2)s1,-8.2%
Cc1nc2ccccc2c(=O)n1NCc1cc(Br)cs1,11.4%
Cc1ccc(Nc2nc3ccc(C(=O)c4ccccc4)cc3n3c(C)nnc23)c(C)c1,1.6%
Cn1c2ccccc2c(=O)c2ccc(C#Cc3ccccn3)cc21,-23.0%
CN(C)c1ccc(NC(=O)CN2C(=O)c3ccccc3C2=O)cc1,7.7%
COc1ccc(CCC(=O)Nc2ccc(S(=O)(=O)N3CCCC3)cc2)cc1OC,8.3%
CCN(Cc1ccccc1)S(=O)(=O)c1ccc2oc(C(=O)O)c(C)c2c1,-13.1%
CN(C(=O)c1cc(S(=O)(=O)N2CCCCC2)c[nH]1)C1CCCCC1,7.1%
COc1ccc(S(=O)(=O)Nc2ccc(OCC(=O)O)cc2)c2ccccc12,-4.1%
CO/N=C(/CS(=O)(=O)Cc1ccccc1Cl)c1ccc(Cl)cc1Cl,-3.0%

(listing goes on)
smiles,VDR inh
CCCC(=O)NCc1ccc2c(c1)cc(C)n2C,-7.3%
COC(=O)c1ccc(CN(C)S(=O)(=O)c2cccs2)cc1,-1.3%
CN(C)S(=O)(=O)c1cccc(C(=O)Nc2ccc(Cl)cn2)c1,2.0%
O=C(NNc1ccccn1)c1ccccc1CC[N+](=O)[O-],10.6%
CCOc1ccc(CCNC(=O)c2nn(C)c3c2CSc2ccccc2-3)cc1,3.3%
O=C1NC(c2ccccc2Cl)=N/C1=C/c1ccco1,13.4%
CC(=O)N(Cc1ccccc1)c1nc(-c2ccccc2)cs1,-13.6%
COc1ccc(NC(=O)C(Cl)=C(Cl)Cl)cn1,-19.9%
Cc1ccc(-n2c(CNC(=O)c3cccs3)nnc2SCC(=O)NO)cc1,2.5%
COC(=O)c1sccc1NC(=O)c1cc(-c2cccc(C)c2)nc2ccccc12,-8.4%
CCCCOc1ccc(/C=N/NC(=O)c2csc(C)c2C)cc1,-3.8%
COc1ccc(NC(=O)COc2ccc(C)c(C)c2)cc1S(=O)(=O)N1CCCCC1,5.4%
CN(Cc1ccc(Cl)cc1)C(=O)c1ccc2ccccc2n1,15.9%
O=C1NC(NS(=O)(=O)c2ccccc2)(C(F)(F)F)C(=O)N1c1ccc(F)cc1 (stereo not drawn),-22.5%&-8.0%
CCc1cccc(CC)c1NC1=NS(=O)(=O)c2ccccc21,-14.9%
CCOc1ccc(N(CC(=O)NN=C2CCN(C)CC2)S(C)(=O)=O)cc1,5.9%
Cc1cccc(-n2c(-c3csc4ccccc34)n[nH]c2=S)c1,-10.5%
Cc1[nH][nH]c(=O)c1C(c1c(C)[nH][nH]c1=O)c1cn(Cc2cccc3ccccc23)c2ccccc12,-21.5%
O=C(CC1Nc2ccccc2NC1=O)Nc1ccccc1 (stereo not drawn),-9.7%
CCN(C(=O)c1cc(S(=O)(=O)N2CCc3ccccc32)cn1C)c1ccccc1,-9.6%
Cc1ccccc1NC(=O)c1ccc(CN(c2ccccc2)S(=O)(=O)c2ccccc2)cc1,-8.7%
CCOc1ccc(OCC)c(NS(=O)(=O)c2cccc3nsnc23)c1,28.6%
Cn1c(=O)c(C(=O)NCc2ccc(Cl)cc2)c(O)c2ccccc21,-9.7%
Oc1ccc(N2CCN(C(=S)NCc3ccccc3)CC2)cc1,-7.7%
CCCCN1C(Nc2ccccc2)=NC[C@@H]1C,-0.7%
O=C(c1ccco1)N1N=C(c2ccc3nccnc3c2)CC1c1ccccc1 (stereo not drawn),-14.0%

Assay outcomes from PubChem BioAssay.
